Anthrax LT inh – blocks cellular internalization of anthrax lethal toxin | Cells, anthrax lethal toxin internalization, FRET ratio (460/530) | Potency, µM (series often up to 40 µM), for inactives: at the highest dose activity change, negative = inhibition, usual class: inhibitors | AID 912 | hit rate 0.67% among 70,000; active = well fitted falling ratio curve with the 530 nm signal flat; inconclusive = other ratio curves, or a change in one channel alone; inactive = flat curves in the ratio and both channels; the % refers to the ratio; note: % is set by controls: 0 for no effect and ±100 for the full control effect; nearly all actives have a fitted effect of over 50% in size; tested in ME-180 cells; beta-lactamase reporter
SmPrx2 inh – inhibitors of Schistosoma mansoni peroxiredoxin 2 | hit rate 0.07% among 65,000 | S. mansoni Prx2 activity coupled to TGR/GSH (TGR is thioredoxin glutathione reductase), NADPH fluorescence loss, qHTS; some inactives read as strong as hits | Potency, µM | AID 448; active means full or partial inhibition curve with a strong effect at the top dose; inconclusive means weaker partial or single-point curve; inactive means no accepted curve; note: series up to 57 µM; many of its hits are not listed in these tables
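Activity is read as the drop in NADPH fluorescence (365/450 nm), recorded every 30 sec for 8 min after H2O2 addition. Prx2 is coupled to TGR-driven NADPH oxidation through glutathione, in phosphate buffer pH 7.4.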
* = called active by the depositor; ? = inconclusive; . = no result given; & = joins results of further samples; [ ] = dose if it differs, or a comment. Potency is the fitted concentration of half-maximal effect. The list is partial. The share of hits here may be higher or lower than overall.

Values run as follows: Anthrax LT inh	SmPrx2 inh
O=c1cc(-c2cccc3ccccc23)[nH][nH]1
    1%	>57
N#CCSc1nc2c(cc1C#N)CCCC2
    -5%	>57
O=c1cnc2cncnc2n1Cc1ccccc1Cl
    ?	>57
CCn1c(CNc2cccc(Cl)c2)nnc1SCC(=O)OC1CCCCC1
    ?	>57
O=C(COc1ccc(Cl)cc1Cl)NCc1ccncc1
    1%	.
O=C(Nc1cccc(C(=O)N2CCOCC2)c1)NC1CCCCC1
    5%	>57
C=CCOC(=O)CCP(=O)(CCC(=O)OCC=C)c1ccccc1
    1%	>57
CCCCn1c2c(c3ccccc31)CCc1nonc1-2
    ?	>57
CNC(=O)NCCN1CCCC1=O
    -17%	>57
C=C(C)CSc1nnc(-c2cc(OC)c(OC)c(OC)c2)n1N
    -10%	>57
COc1cc(C)nc(OCCNC(=O)COc2ccc(Cl)cc2C)n1
    9%	>57
CC1(C(=O)N(c2ccccc2)C(C(=O)NC2CCCC2)c2ccccn2)CC(=O)N=C2C=CC=CN21 (configuration not stated)
    -2%	>57
CCCCC(CC)COCC1CO1 (configuration not stated)
    -2%	.
COc1ccc(OC)c(NC(=O)c2cn(C)c(=O)c3cc(OC)c(OC)cc23)c1
    6%	>57
CCOC(=O)c1oc2ccccc2c1CSc1nnnn1-c1ccc(C)cc1
    -12%	>57
C=CCn1cc(C(=O)N2CCN(C)CC2)c(=O)c2cc(S(=O)(=O)N3CCCC3)ccc21
    -10%	>57
COc1ccc(C2C(C(C)=O)=C(C)N=c3s/c(=C/c4ccc5c(c4)OCO5)c(=O)n32)cc1 (configuration not stated)
    -10%	>57
Cn1ccnc1Sc1nc2ccccc2nc1NS(=O)(=O)c1ccccc1
    4%	>57
Cc1cccc(N2C(=O)CC(N3CCN(C(=O)c4ccccc4)CC3)C2=O)c1 (configuration not stated)
    -12%	>57
COc1ccccc1N1CCN(Cc2ccc(Br)o2)CC1
    -15%	.
COc1ccc(OC)c(NC(=O)COC(=O)c2ccc(-n3cnnn3)cc2)c1
    6%	>57
O=c1c(-c2ccccc2)nc2cnc(N3CCOCC3)nc2n1-c1ccccc1
    ?	>57
O=S(Cc1ccc(Cl)cc1)CC(O)COc1ccc(Cl)cc1 (configuration not stated)
    -2%	.
CCC1Sc2ccccc2N(CC(=O)NC2CCCC2)C1=O (configuration not stated)
    ?	>57
CCOC(C)=O
    -13%	.
Cn1c(=O)c2c(nc(SCC(=O)Nc3ccc(N4CCOCC4)c(Cl)c3)n2C)n(C)c1=O
    -18%	>57
NCCN1CCN(CCN)CC1
    -4%	>57
CCOC(=O)N1CCN(C(=O)Cc2ccc(Cl)cc2)CC1
    8%	>57
COc1cccc(-c2noc(-c3cccnc3)n2)c1
    -22%	>57
O=C(c1cnn2ccccc12)N1CCCc2ccccc21
    11%	>57
CCCNC(=O)c1cc(-c2ccco2)on1
    -4%	>57
N#CCSc1nnc(N)s1
    .	>57
O=c1oc2ccccc2c2c1ncn2C1CCCCC1
    0%	>57
COc1cc([C@H]2[C@@H]3CCCC[C@]3(O)CCN2CC(=O)Nc2ccc(C)cc2)ccc1O
    ?	>57
O=c1[nH]c(=O)n(Cc2ccco2)c(O)c1C=NCc1ccco1
    1%	>57
COc1ccc(S(=O)(=O)n2ccnc2)c2cccnc12
    -3%	>57
COc1cc(C(=O)N2CCCN(c3nc4cc(C)ccc4cc3C#N)CC2)cc(OC)c1OC
    -9%	>57
CCOC(=O)CNC(=O)CSc1nnc(-c2cccc(C)c2)n1-c1ccc(OC)cc1
    14%	>57
CN=C1SC(CC(=O)Nc2sc(C)c(C)c2C(=O)OC)C(=O)N1C (configuration not stated)
    5%	>57
CCc1c(C)nc(SCC(=O)c2ccc(C)c(C)c2)[nH]c1=O
    -11%	>57
COc1ccc(OC2C=CC(C#Cc3ccccc3)OC2CO)cc1 (configuration not stated)
    -7%[8 µM]	.
COc1ccc(-c2nc3c(n2O)CCCC3=O)cc1OC
    -3%	>57
CS(=O)c1nc(-c2ccc(Br)cc2)cc(-c2ccccc2)c1C#N (configuration not stated)
    ?	>57
CN1C(=O)CSc2ccc(NC(=O)Nc3ccccn3)cc21
    -14%	>57
COC(=O)C1C2C=CC3(CN(Cc4cccs4)C(=O)C13)O2 (configuration not stated)
    7%	>57
CN(CCc1ccccn1)S(=O)(=O)c1ccc(F)cc1
    2%	>57
Nc1nc2nc(SCC(=O)N3CCCc4ccccc43)[nH]c2c(=O)[nH]1
    -8%	>57
O=C1CC(Nc2ccccc2)C(=O)N1c1ccc(N2CCOCC2)cc1 (configuration not stated)
    -9%	>57
CCCCN(C(=O)NC(=O)Nc1nc2ccc(OC)cc2s1)S(C)(=O)=O
    13%	>57
Cc1ccc(CCNC(=O)C2CCN(S(=O)(=O)c3cccc4nsnc34)CC2)cc1
    -5%	.
Cc1cccc(NC(=O)c2ccccc2O)c1C
    -29%	.
CCN(CC)C(=O)Cn1nc(-c2ccccc2O)nc1SCC(=O)Nc1ccc(OC)cc1
    -23%	>57
NC(=O)CSc1nnc(-c2ccc(S(=O)(=O)N3CCCC3)cc2)n1CC1CCCO1 (configuration not stated)
    2%	>57
CCc1ccc(-n2c(O)cnc2Nc2nc(C)cc(C)n2)cc1
    -27%	>57
CCOC(=O)N1CCN(C(=O)Cc2ccsc2)CC1
    -2%	>57
O=C(COc1ccc(S(=O)(=O)N2CCCC2)cc1Cl)NC1CC1
    ?	>57
COc1cc(NC(=O)c2ccccc2)c(OC)cc1NC(=O)CN1CCOCC1
    -10%	>57
COCCCn1c(SCC(=O)N2CC(=O)Nc3ccccc32)nnc1-c1ccoc1C
    -12%	>57
Cc1cc(=O)n2nc(N3CCC(C(=O)NC4CCCc5ccccc54)CC3)sc2n1 (configuration not stated)
    5%	>57
CCOc1ccc(C(C)C)cc1S(=O)(=O)n1nc(C)cc1C
    -16%	>57

Grouped by structure: the entries above with bromine.
Values run as follows: Anthrax LT inh	SmPrx2 inh
COc1ccccc1N1CCN(Cc2ccc(Br)o2)CC1
    -15%	.
CS(=O)c1nc(-c2ccc(Br)cc2)cc(-c2ccccc2)c1C#N (configuration not stated)
    ?	>57

Other compounds
Values run as follows: Anthrax LT inh	SmPrx2 inh
CCC(C)NC(=O)C1CC(c2ccc(OC)cc2)=NO1 (configuration not stated)
    -4%	>57
O=c1c(-c2cc(F)cc(F)c2)nc2cncnc2n1Cc1ccc(F)cc1
    ?	>57
COC(=O)CNC(=O)C1(CC(C)C)C=CCN1C(=O)c1ccccc1 (configuration not stated)
    -7%	.
COC(=O)CC1Oc2ccccc2N(Cc2ccc(C)cc2)C1=O (configuration not stated)
    -4%	>57
Cc1ccc(S(=O)(=O)N(c2cccc(C(F)(F)F)c2)C2C=CS(=O)(=O)C2)cc1 (configuration not stated)
    -11%	.
CCC(C)NS(=O)(=O)c1ccc(OCC(=O)NCc2ccco2)cc1 (configuration not stated)
    11%	>57
Cc1cc(Cc2cc(Cc3cc(C)cc(C(C)(C)C)c3O)c(C)cc2C)c(O)c(C(C)(C)C)c1
    -14%[8 µM]	>57
[N-]=[N+]=NCC(=O)c1c[nH]c(=O)[nH]c1=O
    -2%[8 µM]	>57
NCCc1ccn[nH]1
    1%[3.58 µM]	>57
Cc1nn(Cc2ccccc2Cl)c(Cl)c1C(=O)OCC(=O)NCc1ccco1
    -4%	>57
O=C(NCCc1ccccc1)NC1CCCCC1
    -16%	>57
COC(=O)C12CC3(CCC4C5C(C(OCc6ccccc6)C41)C52)OCCO3 (configuration not stated)
    -3%[8 µM]	.
Cc1ccc(-n2c(SCC(=O)NCC3CCCO3)nnc2-c2ccoc2C)cc1 (configuration not stated)
    -3%	>57
CON(C)C(=O)c1nnc2c3ccccc3n(S(=O)(=O)c3ccc(C)cc3)c2n1
    ?	.
CNC(=O)c1c[nH]n2c(=O)c(Cc3ccccc3F)c(C)nc12
    0%	>57
COc1ccc(Oc2ncc3nc(C)c(=O)n(CCC#N)c3n2)cc1
    18%	>57
COCC(=O)Nc1ccc(S(=O)(=O)NCCc2ccccc2)cc1
    7%	>57
COc1ccc(C(=O)CSc2nnc(C3CCCCC3)n2N)c(OC)c1
    11%	>57
O=C(CN1CCN(S(=O)(=O)c2ccc(F)cc2)CC1)Nc1ccc(Cl)c(C(F)(F)F)c1
    -11%	>57
Cn1c(=O)c2c(nc(SCC(=O)NCc3ccc4c(c3)OCO4)n2Cc2ccccc2)n(C)c1=O
    -4%	>57
COC(=O)[C@H](CCSC)NC(=O)N1CCN(Cc2ccccc2)CC1
    .	>57
COc1ccc(-n2cnnc2SCCC#N)cc1
    4%	>57
Cc1cc2cc(CN(Cc3ccco3)C(=O)C3CCCCC3)c(=O)[nH]c2cc1C
    8%	>57
O=C(C1CCCO1)N1CCC2(CC1)OCCO2 (configuration not stated)
    6%	>57
O=C(NCc1ccco1)C1CCCN1C(=O)NCc1ccccc1 (configuration not stated)
    -1%	>57
COc1ccccc1C1CC(c2ccccc2)Nc2ncnn21 (configuration not stated)
    ?	>57
CCn1cc(C(=O)O)c(=O)c2cc3c(cc21)OCO3
    5%[3.58 µM]	>57&>57
Cc1cccc(C)c1OCc1nnc(SCC(=O)Nc2nccs2)o1
    2%	>57
CCn1c(SCC(=O)Nc2ccc(N(C)C)cc2)nnc1-c1cccc(C)c1
    -2%	>57
C=CCOc1cccc(C2C(C(=O)c3ccc(C)o3)=C(O)C(=O)N2Cc2ccncc2)c1 (configuration not stated)
    -9%	>57

Whole records as entered above. Values in the order: Anthrax LT inh, SmPrx2 inh
Results for COC(=O)[C@H](CCSC)NC(=O)N1CCN(Cc2ccccc2)CC1 : ., >57
Results for [N-]=[N+]=NCC(=O)c1c[nH]c(=O)[nH]c1=O : -2%[8 µM], >57
Results for CON(C)C(=O)c1nnc2c3ccccc3n(S(=O)(=O)c3ccc(C)cc3)c2n1 : ?, .
Results for COCC(=O)Nc1ccc(S(=O)(=O)NCCc2ccccc2)cc1 : 7%, >57
Results for COC(=O)CNC(=O)C1(CC(C)C)C=CCN1C(=O)c1ccccc1 (configuration not stated) : -7%, .

More structures follow:
Values run as follows: Anthrax LT inh	SmPrx2 inh
CCn1cc(C(=O)O)c(=O)c2cnc(N3CCCC3)nc21
    5%[3.58 µM]	>57
CC1(O)c2ccccc2C(=O)N1CCc1ccccc1F (configuration not stated)
    -3%	>57
CC(C)(C)OC(=O)NCCc1nnc(SCC(=O)Nc2cccc(Cl)c2)o1
    15%	>57
CN(C)S(=O)(=O)c1ccc(N2CCCC2)c(C(=O)Nc2ccccc2N2CCOCC2)c1
    12%	>57
CCN(CCCNC(=O)CCCN1C(=O)COc2ccc(C)cc21)c1cccc(C)c1
    .	>57
Cn1c(C(=O)N2CCCC(C(=O)NCc3cccs3)C2)cc2sccc21 (configuration not stated)
    -4%	>57
Cc1nn(Cc2ccccc2Cl)c2sc(C(=O)OC3CCCC3=O)cc12 (configuration not stated)
    -8%	>57
COC(=O)CN1C(=O)C(O)(CC(=O)c2ccc(C)cc2)c2ccccc21 (configuration not stated)
    12%	>57
CCOC(=O)C1CCc2sc(N)c(C#N)c21 (configuration not stated)
    -12%	>57
Cc1c(C(=O)NC2CCCc3ccccc32)oc2ccc(S(=O)(=O)N3CCOCC3)cc12 (configuration not stated)
    -6%	>57
COc1ccccc1N1CCN(C(CNS(=O)(=O)c2ccccc2)c2cccnc2)CC1 (configuration not stated)
    6%	>57
O=C(CCCCCN1C(=O)c2ccccc2C1=O)Nc1nccs1
    0%	>57
CC(C)(C)N1C(=O)[C@H]2[C@H]3[C@H](O)[C@H](O)C/C(=N/OC[C@@H](O)COCc4ccco4)[C@@H]3CC[C@@H]2C1=O
    -4%[8 µM]	.
O=C(Cn1nc(Cc2cccnc2)c2ccccc2c1=O)NCC1COc2ccccc2O1 (configuration not stated)
    -9%	>57
CSCCC(NC(=O)C1CC1)c1nc2ccccc2[nH]1 (configuration not stated)
    -2%	>57
N[C@@H]1[C@@H]2[C@@H]3C[C@H]4N(CC[C@@]14C(=O)C(=O)O)CC3=CCO[C@@H]2CC(=O)O
    -6%[8 µM]	>57
COC(=O)CSc1nnc(-c2cccc(NC(=O)c3ccc(C)cc3)c2)n1C
    -8%	>57
CC(=O)CC1(C)OC(N)=C(C#N)C1(C#N)C#N (configuration not stated)
    18%	>57
c1ccc2c(-c3ccncc3)c[nH]c2c1
    13%	>57
COc1cccc(-n2c(SCc3c(C)noc3C)nnc2-c2cccc(S(=O)(=O)N(C)C)c2)c1
    0%	?

Compounds above containing a CF3 group, in the order listed:
Values run as follows: Anthrax LT inh	SmPrx2 inh
Cc1ccc(S(=O)(=O)N(c2cccc(C(F)(F)F)c2)C2C=CS(=O)(=O)C2)cc1 (configuration not stated)
    -11%	.
O=C(CN1CCN(S(=O)(=O)c2ccc(F)cc2)CC1)Nc1ccc(Cl)c(C(F)(F)F)c1
    -11%	>57

Compound activity: PubChem BioAssay, National Center for Advancing Translational Sciences (NCATS)
